Sfp PPTase inh – qHTS Assay for Inhibitors of Bacillus subtilis Sfp phosphopantetheinyl transferase (PPTase) | hit rate 3.5% among 310,000 | Potency, µM, for the others: max response, negative = inhibition, most hits filed as inhibitors | 4'-phosphopantetheinyl transferase ffp (Bacillus subtilis), Q9F4F7 | Biochemical Sfp PPTase activity, qHTS; active = well fitted inhibition curve with a large enough effect; inconclusive = small, poorly fitted or top-dose-only effect, or another doubt; inactive = no such curve, though single readings can be large or run the other way;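 note: the enzyme is Sfp with the accession as filed and its product quenches rhodamine fluorescence; potency is the fitted concentration of half-maximal effect; 0% = enzyme reaction without inhibitor and -100% = no enzyme wells; top concentration of the series not given in the record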
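Fluorescence-quenching assay: 15 nM Sfp-PPTase preincubated 15 min at room temperature with compound, then 5 uM rhodamine-CoA and 12.5 uM BHQ-2-labelled YbbR peptide added. Fluorescence (ex 525/em 598 nm) read at start and after 30 min; difference gives rate.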
Menin MLL FP FL – qHTS Assay for Inhibitors Targeting the Menin-MLL Interaction in MLL Related Leukemias: Competition With Fluorescein Labeled MLL-derived Peptide. AID 1766, 2009. FP activity change, % at 61.4 µM. 290,000 tested, under 10 active. Fluorescence polarization, fluorescein-MLL peptide displacement from menin; inconclusive = falling polarisation curve, or a change in total fluorescence; inactive = total fluorescence flat and polarisation flat or rising; no compound was filed as active; the % refers to the polarisation; negative = inhibition;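 note: % of control where 0% means no effect; inhibitors lower the polarisation; unlabelled MLL peptide was the positive control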
TRPML1 agonist – qHTS for Agonists of the Human Mucolipin Transient Receptor Potential 1 (TRPML1); TRPML1-expressing cells, Ca2+ dye fluorescence, FDSS; host cell line not named in the record; reference of the full effect not given here; activation, % (test concentration not listed); hit rate 0.12% among 410,000; AID 624414, 2012; in the data active = activation above about 50%; inconclusive = about 30% to 50%; inactive = below about 30%; note: 0% is about no effect; the text of the record puts the active cut at 80%
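Agonist activity was taken from a 110 s kinetic Ca2+ dye read on the FDSS after pinning compounds onto TRPML1-DL cells. The cells were seeded at 1,500/well with Tet inducer, incubated about 16 h, then dye-loaded at room temperature.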
PINK1 expr mod – A Quantitative High throughput Screen to Identify Chemical Modulators of PINK1 Expression; Potency, µM (series often up to 76.6 µM), inactives show top-dose activation (PINK1 increase), actives largely listed as activators; hit rate 0.2% among 410,000; PINK1 immunofluorescence, high-content cytometry, 24 h; active = well fitted activation curve with a large enough effect; inconclusive = small, poorly fitted or top-dose-only effect; inactive = flat fitted curve, though single readings scatter; cell line not stated here;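 note: potency is the fitted concentration of half-maximal effect; % of control where 0% means no effect; nearly all actives have a fitted effect of over 65% in size; a mitochondrial uncoupler was the plate control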
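Stable cell line treated 24 h with compounds at 5 concentrations (CCCP controls), then fixed and immunostained for PINK1 plus nuclear and cell stains; PINK1 immunofluorescence quantified by laser-scanning microplate cytometry.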
ClpP mod – qHTS Assay for Activators of ClpP; ATP-dependent Clp protease proteolytic subunit (Bacillus subtilis (strain 168)), P80244; purified B. subtilis ClpP, FRET peptide cleavage, 20 min; Potency, µM (top dose mostly 57.5 µM), for inactives: top-dose activity change, negative = active; hit rate 1.9% among 340,000; active = well fitted falling curve with a large enough effect; inconclusive = small, poorly fitted or top-dose-only effect; inactive = no such curve, though single readings can be large or run the other way; note: potency is the fitted concentration of half-maximal effect; the source files actives as falling curves though it sought activators and does not explain the sign; nearly all actives have a fitted effect of over 65% in size; many hits overshoot -100%
Target sequence (P80244 whole entry, looked up): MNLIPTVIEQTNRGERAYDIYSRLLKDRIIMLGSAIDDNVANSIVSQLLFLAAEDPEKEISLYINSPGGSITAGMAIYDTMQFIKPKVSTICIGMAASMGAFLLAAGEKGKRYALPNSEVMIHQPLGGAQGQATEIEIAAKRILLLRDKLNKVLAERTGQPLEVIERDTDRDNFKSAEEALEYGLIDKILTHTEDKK
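Purified B. subtilis ClpP, 10 microg/mL final in Tris/HCl pH8 with KCl, BSA, glycerol and Tween-20, cleaved an Abz/nitrotyrosine-quenched decapeptide. Fluorescence (ex 320, em 430) was read at 0 and 20 min at room temperature. Delta was normalized to 5.8 microM ADEP and DMSO/no-enzyme controls.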
TRPV1 potentiator – HTS Assay for Compounds that Act as Potentiators of the Vanilloid Receptor 1. TRPV1-expressing cells, Fluo-8 calcium influx, capsaicin EC20 potentiation; host cell line not named in the record; control for the full effect not named in the record. potentiation, % at 8.33 µM. hit rate 0.02% among 320,000. AID 540277, 2011; active means potentiation above 80%; inconclusive means 30% to 80%; inactive means below 30%; note: 0% is about no effect
Target sequence (Q8NER1 whole entry, looked up): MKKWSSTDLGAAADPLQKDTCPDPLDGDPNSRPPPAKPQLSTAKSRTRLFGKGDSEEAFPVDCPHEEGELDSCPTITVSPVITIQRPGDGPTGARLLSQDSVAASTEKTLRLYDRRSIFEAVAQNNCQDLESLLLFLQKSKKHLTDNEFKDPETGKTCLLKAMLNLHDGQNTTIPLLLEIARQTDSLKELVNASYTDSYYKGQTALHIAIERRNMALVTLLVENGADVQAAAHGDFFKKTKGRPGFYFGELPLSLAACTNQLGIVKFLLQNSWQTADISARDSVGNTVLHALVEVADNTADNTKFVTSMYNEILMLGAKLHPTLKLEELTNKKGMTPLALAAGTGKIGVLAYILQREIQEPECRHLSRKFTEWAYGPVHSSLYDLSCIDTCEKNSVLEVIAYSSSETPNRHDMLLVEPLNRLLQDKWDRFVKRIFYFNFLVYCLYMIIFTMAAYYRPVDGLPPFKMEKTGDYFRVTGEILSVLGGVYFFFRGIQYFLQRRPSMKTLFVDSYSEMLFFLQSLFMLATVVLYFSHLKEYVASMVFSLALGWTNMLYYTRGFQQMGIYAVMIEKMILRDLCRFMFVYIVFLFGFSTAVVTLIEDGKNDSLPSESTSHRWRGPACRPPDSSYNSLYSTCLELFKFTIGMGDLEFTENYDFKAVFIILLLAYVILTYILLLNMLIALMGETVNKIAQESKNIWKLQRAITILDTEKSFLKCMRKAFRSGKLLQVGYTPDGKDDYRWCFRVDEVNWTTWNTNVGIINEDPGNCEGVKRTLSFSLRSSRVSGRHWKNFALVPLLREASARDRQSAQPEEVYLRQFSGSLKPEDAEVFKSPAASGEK
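Cells expressing TRPV1 were dye-loaded with Fluo-8 and read kinetically: 10 s baseline, 3 min after compound (agonist portion), then 2 min after EC20 capsaicin (allosteric enhancer portion). Calcium-bound dye fluorescence at 480/520 nm.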
TRPML1 blocker – qHTS for Inhibitors of the Human Mucolipin Transient Receptor Potential 1 (TRPML1). activity change, negative = inhibition, % (no concentration beside the values). hit rate 0.02% among 390,000. TRPML1-inducible cells, Ca2+ dye fluorescence, FDSS; hits give low values; inhibition of EC80 agonist-evoked calcium signal. Mucolipin-1 (Homo sapiens), Q9GZU1; in the data active means activity change below about -50%; inconclusive means about -30% to -50%; inactive means above about -30%;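 note: stimulus is agonist 54-4 at its EC80 concentration; % is set by controls: 0 for no effect and ±100 for the full control effect; compound concentration not given in the record; the text of the record puts the active cut at -80%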
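Calcium fluorescence in TRPML1-DL cells induced overnight with Tet: a 110 s read after compound pin addition, then a 110 s antagonist read after challenge with 54-4 at 4 uM final (EC80).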
The depositor's hits bear a star; ? = inconclusive; / = no result given; & = joins results of further samples; ! = a repeat was not active; [ ] = dose if it differs, or a comment.

SMILES	Sfp PPTase inh	Menin MLL FP FL	TRPML1 agonist	PINK1 expr mod	ClpP mod	TRPV1 potentiator	TRPML1 blocker
C[C@H](CCC(=O)NCC(=O)O)[C@H]1CC[C@H]2C3[C@H](O)C[C@@H]4C[C@H](O)CC[C@]4(C)[C@H]3C[C@H](O)[C@]12C (some centres not stated)	/	/	-0.1	0.0%	2.9%	9.8	-1.8
COc1ccc(NC(=O)CSCc2ccccc2C)cc1	3.3%	5.0	-0.4	-0.9%	0.8%	-12.9	-10.7
CCN(CC(=O)Nc1ccc(NC(C)=O)cc1)C(=O)/C=C/c1cccs1	8.4%	-1.6	0.0	0.5%	-4.3%	-13.2	-0.2
COc1ccc(OC)c(-c2csc(NC(=O)Cc3cc(OC)c(OC)c(OC)c3)n2)c1	7.4%	-1.7	2.7	2.0%	/	2.6	9.3
CC(Sc1nnc(NCc2ccccc2)s1)C(=O)Nc1ccc2c(c1)C(=O)c1ccccc1C2=O (configuration not stated)	-4.5%	5.7	0.6	2.2%	2.1%	-1.0	9.8
CCOc1ccc(CCNC(=O)C2=C(C)C(=O)OC23CCCCC3)cc1OCC	6.4%	2.9	-0.1	0.8%	/	16.6	0.7
CCOc1ccccc1NC(=O)CSc1nnc(NC(=O)c2ccco2)s1	-15.8%	-1.7	-0.3	0.6%	1.7%	11.1	-5.0
CC1CCC2(CC1)NC(=O)N(CC(=O)c1ccc(CNC(=O)C(C)(C)C)s1)C2=O (configuration not stated)	/	/	-0.4	2.3%	-1.0%	12.6	-6.6
CCOc1ccc(NC(=O)CCC(=O)c2ccc(F)cc2)cc1	6.4%	-2.7	0.2	7.1%	1.0%	-9.4	-4.3
COc1cc(C2C3=C(CC(C)(C)CC3=O)NC3=C2C(=O)c2ccccc23)ccc1O (configuration not stated)	-20.6%	-1.7	-1.4	0.2%	/	-19.4	8.8
C[C@H]1COC(=O)[C@H](Cc2ccc(F)cc2)C/C=C\C[C@H](CC(=O)N(CCO)Cc2ccccc2)C(=O)N1	/	/	-0.2	0.8%	-1.3%	/	18.1
Cc1ccc(NC(=O)C2C3CCCC2C3c2ccccc2)c(C)c1 (configuration not stated)	13.4%	5.8	3.4	8.2%	2.4%	-6.0	-26.1
CCOC(=O)c1ccc(NC(=O)CSc2cc(-c3ccccc3)nc(C)n2)cc1	/	/	3.0	-0.4%	-3.7%	/	-16.3
CCCCN(C)C(=O)C1CCCN(c2ncnc3onc(-c4ccc(F)cc4)c23)C1 (configuration not stated)	/	/	1.1	0.4%	1.1%	/	32.4
Cc1ccc(N=C2NC(=O)CC(C(=O)Nc3ccc4c(c3)OCO4)S2)cc1 (configuration not stated)	-3.0%	0.6	-0.7	3.5%	0.4%	-7.6	-8.5
Cc1nn(-c2ccc(F)cc2)c2sc(C(=O)O)cc12	22.2%	-2.0	0.6	/	-10.4%	17.0	6.9
CCc1ccc(N(CC(=O)NC(C)(C)C)C(=O)CCC(=O)Nc2ccccn2)cc1	8.1%	2.7	0.0	-1.1%	0.5%	-8.3	-0.9
O=C(NNS(=O)(=O)c1ccccc1[N+](=O)[O-])c1cccnc1	-19.8%	-0.8	/	0.9%	1.2%	9.4	/
O=C(CNc1ccc2ccccc2c1)N/N=C/c1ccc([N+](=O)[O-])o1	7.3%	3.2	-0.1	21.8%	/	3.1	0.5
COc1ccc(N2CCN(c3oc(-c4ccco4)nc3C#N)CC2)cc1	-5.4%	1.3	-0.4	4.6%	-12.9%	11.6	15.9
CC12CCC(C/C1=N\N=C1\NC(=O)/C(=C\c3cccc(Br)c3)S1)C2(C)C (configuration not stated)	2.2%	9.0	0.9	?	-0.1%	-6.8	8.0
COc1ccc2c(CC(=O)OCC(=O)N3CCc4ccccc43)coc2c1	19.0%	7.3	1.6	-1.3%	2.7%	-5.0	-2.4
COc1ccc(-c2cc(C(=O)N3CC(C)CC(C)C3)c3ccccc3n2)cc1OC (configuration not stated)	/	/	2.1	7.8%	?	-15.7	8.4
CCCCNC(=O)N1CCN(C(=O)c2ccco2)CC1	-4.7%	-4.4	0.3	-2.0%	/	7.4	4.0
CCC[C@H]1CCCC/C=C\CCCC(=O)OCCN1C(=O)OC(C)(C)C	/	/	21.2	4.5%	0.7%	-19.7	-16.4
COC(=O)c1scc(-c2ccc(C)cc2)c1S(=O)(=O)N1CCN(c2ccccc2)CC1	/	/	-0.2	0.8%	-0.2%	/	-4.7
S=C1NC[C@H](CC2CCCCC2)N1CCc1cccc2ccccc12	-4.2%	1.6	-0.8	5.9%	-4.4%	-13.6	-6.6
Cc1[nH]n(-c2ccccc2)c(=O)c1N=Nc1ccc(C#N)cc1	9.6%	2.2	1.7	2.5%	2.3%	13.0	10.7
COc1ccccc1NC(=O)C(CCS(C)(=O)=O)N1C(=O)c2ccccc2C1=O (configuration not stated)	10.3%	5.0	-0.4	1.2%	0.4%	-8.6	3.4
CC(C)CSc1ccc(S(=O)(=O)NCC(=O)O)cc1[N+](=O)[O-]	7.5%	-2.2	0.6	-0.8%	/	1.3	12.9
OC[C@@H]1CN(Cc2cccs2)C[C@H](n2cnc3c(NCc4ccco4)ncnc32)O1	/	/	-0.6	-0.9%	0.0%	/	/
O=C(N/N=C/c1ccc(OC(=O)c2cccc(Br)c2)cc1)c1cccnc1	2.8%	/	1.0	2.7%	/	5.0	11.9
COc1ccccc1NS(=O)(=O)c1cc(N2Cc3ccccc3C2=N)ccc1N1CCOCC1	?	/	1.3	0.5%	/	2.2	44.4
Cc1ccc(C(=O)NC(C)C2CC3CCC2C3)c(C)c1 (configuration not stated)	10.0%	-2.8	-0.5	10.6%	/	-7.4	-7.4
CC1(C)Oc2ccc(C(=O)NNC(=O)Nc3ccccc3)cc2NC1=O	11.8%	/	0.5	-0.3%	/	4.9	0.2
CCOc1ccc(C(=O)NC(=S)Nc2cccc(S(=O)(=O)NC3=NCCC3)c2)cc1	-24.0%	-4.0	1.0	3.1%	/	1.7	-3.6
CC(C)(C)c1[nH]nc2c1C(c1cccnc1)C(C#N)=C(N)O2 (configuration not stated)	2.0%	-1.3	-0.5	/	1.3%	4.6	3.5
COc1ccc(NC(=O)Cn2c(=O)n(-c3ccc(C)cc3)c(=O)c3c2c2cc(C)ccc2n3C)cc1	/	/	0.0	1.8%	?	/	0.2
CSc1nnc(C)c(/C=C/Nc2ccc(F)cc2F)n1	-9.9%	14.8	0.8	0.6%	/	-7.1	5.0
O=C(Nc1cccc(C(=O)N2CCCCC2)c1)C1CC1	/	/	2.5	-0.6%	-1.1%	/	14.3
C=C(CC)C(=O)c1ccc(OCC(=O)O)c(Cl)c1Cl	20µM*!	2.7	-0.6&-0.6	0.8%&0.2%	-0.3%&-0.8%	20.2	-3.3
CCCn1cc(C(=O)N(C)C2CCCN(Cc3ccccc3F)C2)c(C)n1 (configuration not stated)	11.7%	/	0.1	1.3%	-0.9%	28.4	-9.5
Cc1ccc(C)c(SCC(=O)OCC(=O)NCCNC(=O)COC(=O)CSc2cc(C)ccc2C)c1	/	/	4.3	-0.5%	/	-3.5	15.0
CCN(C)C1CN(Cc2cn(Cc3cccc(Cl)c3)nn2)S(=O)(=O)C1 (configuration not stated)	/	/	-1.0	0.3%	1.6%	/	/
Cc1cc2oc(=O)cc(CNc3ccccc3F)c2cc1O	1.0%	4.0	2.9	10.7%	/	-10.2	11.1
COc1ccc(OC)c(NC(=O)Cc2c(C)n(C(=O)c3ccc(Cl)cc3)c3ccc(OC)cc23)c1	/	/	1.2	0.7%	-3.1%	/	19.7
COc1ccc(OCCn2c(=N)n(CCO)c3ccccc32)cc1	-0.8%	3.8	-0.5	-0.1%	0.4%	-2.7	3.2
COc1cc(OC)cc(C(=O)NCc2ccc3c(c2)cc(C)n3C)c1	0.6%	?	1.4	2.0%	/	4.5	1.3
C1=Cc2ccccc2/C1=C(\Cc1ccncc1)Oc1ccncc1	/	/	-0.9	-0.2%	1.8%	/	/
C=CCOC(=O)C1=C(C)NC(=O)NC1c1cc(Cl)cc(Cl)c1OC (configuration not stated)	-10.0%	-3.8	-1.1	0.8%	1.4%	-28.5	7.0
CC1Cc2cc(S(=O)(=O)NCc3ccccc3Cl)ccc2N1C(=O)C1CCC1 (configuration not stated)	/	/	3.3	0.8%	-1.1%	/	15.6
CN1C(=O)c2ccc(C(=O)Nc3ccc4c(c3)OCO4)cc2C1=O	5.5%	/	-0.7	1.8%	0.4%	-29.4	6.5
Cc1ccccc1CNC(=O)CCC(=O)N1CCSc2ccccc21	/	/	1.6	-1.5%	-2.0%	/	23.2
O=C(CN1CCCCC1)Nc1cccc(Br)c1	23.4%	1.8	0.0	1.8%	-2.2%	22.9	9.6
CC1CCn2c(nc3cc(C(=O)NCc4ccc(F)cc4)ccc32)C1 (configuration not stated)	/	/	0.7	0.5%	-2.1%	/	-19.9
COc1ccc(C)cc1NC(=O)CNC(=O)[C@@H]1Cc2ccccc2CN1	-2.9%	-5.6	-0.7	-0.7%	-2.6%	9.1	0.8
O=C(CSc1nnc2c(n1)[nH]c1ccccc12)Nc1nncs1	6.4%	-0.9	-0.8	7.7%	/	-4.3	0.5
Cc1ccccc1OCC(=O)Nc1sc2c(c1C#N)CCC2	-1.2%	-2.7	-0.2	20.5%[38.3 µM]	3.0%	5.8	-9.8
CN(/N=C/c1ccco1)C1=NS(=O)(=O)c2ccccc21	15.3%	-1.3	-1.0	10.9%	/	?	-7.2
Cc1nc(NC(=O)C2CC2)sc1C(=O)Nc1ccccc1	2.4%	0.2	-0.2	2.3%	0.7%	?	9.3
COc1ccccc1N1CCN(C(=O)C2Cc3ccccc3CN2C(=O)c2ccco2)CC1 (configuration not stated)	/	/	0.5	-0.3%	-8.5%	-0.1	42.3

Source: PubChem (National Center for Advancing Translational Sciences (NCATS))
